Compound activity as filed in PubChem BioAssay.
Rce1 inhib: blocks yeast Ras-converting enzyme; yeast membranes, quenched prenylated peptide cleavage fluorescence; calls only; hit rate 0.27% among 290,000; AID 2563;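 active means fall in fluorescence gain of 50% or more versus controls, with final raw signal at or below 3038400; inconclusive means same 50% fall but final raw signal above 3038400; inactive means fall in fluorescence gain under 50%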;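 further: plate controls were neutral control wells for no effect and wells lacking membranes for full effect; tested at 10 µM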
Yeast UUG start: alters start codon recognition fidelity in yeast. hit rate 0.13% among 350,000. activity score, % at 18.7 µM. S. cerevisiae UUG-firefly luciferase reporter, luminescence/redox ratio;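 active means replicate mean at a twofold rise or more, about +100% in these data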;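 further: firefly luciferase made from a UUG start codon reports start codon fidelity; reporter light over untreated wells divided by growth signal over untreated wells; some hits fall short of that in this replicate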
eIF4H FP inh: inhibitors of RNA binding by human eIF4H. eIF4H fluorescence polarization binding assay. inhibition, % at 35 µM. hit rate 0.94% among 290,000. AID 2012;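 active means 50% or more with normal probe brightness, or confirmed in later tests; inconclusive means above 50% with abnormal brightness, or retests that disagree; inactive means below 50% or failed in later tests; about a fifth of its hits are not listed in these tables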;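 further: calls also rest on retests at 20 µM and on dose response follow-up; 0% = protein and probe with vehicle and 100% = probe without protein; strong numbers were not always called active; many hits fall short of the cut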
HIV Env fusion: blocks HIV Env-driven cell-cell fusion. hit rate 1.1% among 360,000. inhibition, % at 12.3 µM. HeLa-JRFL Env/CEM21 cell fusion, luciferase;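 active means mean replicate inhibition score of at least 50 and every replicate individually at or above 50; inconclusive means only one of the two criteria met; inactive means mean below 50 and not all replicates reaching 50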;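 further: 0% = plate neutral controls and 100% = maraviroc near 300 nM; one replicate is shown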
MT1-MMP act inh: inhibitors of human MT1-MMP activation. P50281. HT1080 RFP-PRO-GFP cells, GFP/RFP ratio fluorescence, overnight; percent of plate control window, DMSO zero. GFP/RFP ratio change, % at 20 µM. hit rate 0.061% among 360,000. AID 651647;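 active means GFP/RFP ratio change of at least 30% with cell ATP level not reduced by more than half and red fluorescence within 50% of control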; further: strong numbers were not always called active
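Test system: HT1080 RFP-PRO-GFP cells; Benchmarks: DMSO and RFP-L50D-GFP cell wells; Timing: cells overnight before dosing, compound overnight, 37 °C, 5% CO2; Compound: one 20 µM compound dose with 1% DMSO; Read-out: GFP/RFP fluorescence ratio.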
CSC inhib: blocks cancer stem cells | inhibition, % at 7.5 µM | cancer stem cell-like cells viability, luminescence | hit rate 1.1% among 300,000;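 active means mean at 75% or more and at least half the replicates too; inconclusive means mean and replicates disagree; tested in HMLE shEcad cells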;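 further: 0% = median of negative and 100% = median of positive control wells; the first replicate is given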
PABP FP inh: PABP-poly(A) binding inhibition. inhibition, % at 35 µM. P11940. hit rate 1% among 290,000. PABP-poly(A) RNA binding, fluorescence polarization. AID 2014;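 active means 50% or more with normal probe brightness, or confirmed in later tests; inconclusive means above 50% with abnormal brightness, or retests that disagree; inactive means below 50% or failed in later tests; about a fifth of its hits are not listed in these tables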;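 further: calls also rest on retests at 20 µM and on dose response follow-up; controls were probe without protein and protein plus probe with vehicle; some compounds called inactive have numbers as strong as hits; many hits fall short of the cut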
Target sequence (P11940 whole entry, looked up): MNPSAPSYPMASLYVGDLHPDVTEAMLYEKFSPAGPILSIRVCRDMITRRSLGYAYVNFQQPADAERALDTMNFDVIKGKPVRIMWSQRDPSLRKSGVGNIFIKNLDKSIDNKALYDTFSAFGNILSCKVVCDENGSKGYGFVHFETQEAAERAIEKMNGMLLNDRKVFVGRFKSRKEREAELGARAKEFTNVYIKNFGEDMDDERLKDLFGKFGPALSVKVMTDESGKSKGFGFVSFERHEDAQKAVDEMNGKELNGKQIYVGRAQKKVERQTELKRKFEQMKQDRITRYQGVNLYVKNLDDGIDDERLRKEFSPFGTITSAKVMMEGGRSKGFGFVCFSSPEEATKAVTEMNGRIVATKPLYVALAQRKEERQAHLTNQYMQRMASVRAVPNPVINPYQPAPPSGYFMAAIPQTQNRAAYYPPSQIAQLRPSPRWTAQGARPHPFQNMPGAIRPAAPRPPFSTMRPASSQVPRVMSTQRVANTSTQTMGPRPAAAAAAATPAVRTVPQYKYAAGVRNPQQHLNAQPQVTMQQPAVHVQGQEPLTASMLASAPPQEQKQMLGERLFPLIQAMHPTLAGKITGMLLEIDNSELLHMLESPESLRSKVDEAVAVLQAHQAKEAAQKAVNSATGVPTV
MT1-MMP act inh RFP: further read-out of MT1-MMP act inh, marked with its call; RFP signal change, %; measured here: RFP expression control read;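 0 = vehicle wells; hits needed this value within 50% of zero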
Active calls of the source: *; i = inactive; ? = inconclusive; nt = no result given; + = active, no number; & = joins results of further samples.

SMILES	HIV Env fusion	MT1-MMP act inh	Rce1 inhib	MT1-MMP act inh RFP	CSC inhib	Yeast UUG start	eIF4H FP inh	PABP FP inh
CCOC(=O)c1c(C)n2c3c(cc(C)cc13)CCC2	1	1	i	4	14	-12	-2	-4
Cc1ccc(C(=O)Nc2ccc(C)c(S(=O)(=O)N(C)C)c2)s1	-27	-1	i	-4	-4	nt	-1	-1
Cn1c(=O)oc2cc(S(=O)(=O)NCCC(=O)N3CCc4ccccc4C3)ccc21	nt	3	i	3	nt	-19	0	-1
CN(CCc1ccccn1)C1CCCN(S(=O)(=O)c2ccccc2)C1 (stereo not given)	16	-2	i	-4	-16	-13	-2	0
COCC(C)NCc1cccc(OC)c1OC (stereo not given)	6	-3	i	3	-10	nt	-3	1
COc1ccccc1Nc1nc(N)nc(CN2CC(C)CC(C)C2)n1 (stereo not given)	-1	-2	i	1	-9	5	-7	-1
Cc1ccc(NC(=O)Nc2ccon2)cc1Cl	-33	0	i	0	-10	3	-4	-2
C/C(=N\NC(=O)C(=O)N/N=C(\C)c1cccc(O)c1)c1cccc(O)c1	4	1	i	0	2	-14	23	4
Cc1cccc(NC(=O)CNC(=O)CNC(=O)Cc2ccccc2)c1	-17	-1	i	5	-4	-5	-5	-2
COC(=O)[C@@H]1[C@H]2C[C@H]3c4[nH]c5ccccc5c4CCN3C[C@@H]2CC[C@@H]1O	-3	-4	i	1	-5&-21	-15	-2	-6
CCOc1ccc(S(=O)(=O)N2CCN(CCNS(=O)(=O)c3ccc(C)cc3)CC2)cc1	11	-2	nt	0	nt	13	nt	nt
COc1cccc(N=Nc2ccc3cccnc3c2O)c1	-5	20	i	-17	90*	-24	19	7
Cc1ccc2nc3c(cc2c1)c(NC(=O)c1ccccn1)nn3CC(C)C	-5	-2	i	-5	nt	-10	-2	5
CCNC(=O)OCc1cn(-c2ccc(Cl)cc2)nn1	-10	2	i	3	-4	nt	0	-4
C[C@@H]1CN([C@H](C)CO)C(=O)CCCn2cc(nn2)CO[C@H]1CN(C)S(=O)(=O)c1ccc(C#N)cc1	-51	2	nt	4	nt	3&3	nt	nt
COc1ccccc1N1CCN(C(=O)CCCn2c(=S)[nH]c3ccccc3c2=O)CC1	25	-3	nt	-14	nt	-13	nt	nt
O=C(CN(c1ccc(F)cc1)S(=O)(=O)c1ccc2c(c1)OCCO2)NCc1ccccc1	nt	1	i	-2	-3	-9	0	3
CCc1nnc(SCC(=O)Nc2ccc(N3CCN(S(C)(=O)=O)CC3)cc2)o1	-15	0	i	6	nt	-18	0	1
CN1C(C(=O)NCCc2cccs2)CC2Cn3c(nc4ccccc43)C21 (stereo not given)	23	5	i	-1	-15	-10	-2	-6
COc1cc(CCC(=O)NC2(C)CCS(=O)(=O)C2)cc(OC)c1OC (stereo not given)	9	-3	nt	4	-12	-4	nt	nt
CC(NC(=O)/C(C#N)=C/c1ccc(Cl)c([N+](=O)[O-])c1)c1ccccc1 (stereo not given)	-35	nt	+	nt	11	nt	-3	3
Cn1nnc2cc(C(=O)Nc3ccc4ccccc4c3)ccc21	-79	3	nt	1	2	nt	-6	-5
COc1ccc(CCNC(=O)C2CCCN(S(=O)(=O)N3CC(C)CC(C)C3)C2)cc1OC (stereo not given)	11	2	i	0	18	2	-2	-6
O=C(Nc1ccsc1C(=O)NC1CC1)c1ccccc1	-53	2	i	0	-10	-4	-12	5
O=C(NCC(O)c1ccc([N+](=O)[O-])cc1)C1=COCCO1 (stereo not given)	nt	-2	nt	2	-6	-30	nt	nt
O=C(COC(=O)/C=C/c1ccccc1[N+](=O)[O-])NCC1CCCO1 (stereo not given)	-1	0	i	7	3	nt	0	-10
O=C1CCCc2c1cc(C(=O)NCc1ccco1)c(=O)n2-c1ccc(Cl)cc1	-18	-4	i	-2	3	-4	-3	-8
O=C(CC1C(=O)NCCN1C(=O)Nc1ccc(F)cc1F)Nc1cc(Cl)ccc1Cl (stereo not given)	3	2	i	2	18	-9	-3	6
COC(=O)c1ccc(CN2C(=O)NC3(CCCCC3)C2=O)cc1	2	3	i	3	-13	nt	-7	-19
Cc1csc(NC(=O)CSc2nnc(-c3ccc(S(=O)(=O)N4CCCC4)cc3)o2)n1	nt	8	i	12	1	-21	-3	-8
NC1=NC[C@@H](Cc2ccc(O)cc2)N1CCCCC1CCCCC1	-18	-2	i	-7	23	-3	11	1
O=C(COC(=O)c1ccco1)Nc1cccc(S(=O)(=O)N2CCOCC2)c1	20	1	nt	5	nt	-18	nt	nt
Cc1ccc(N=Cc2cc3c(cc2O)OC(N)=C(C#N)C3c2ccccc2)cc1 (stereo not given)	-62	-40	i	-5	-1	nt	5	-6
Cc1ccc(S(=O)(=O)NCC(=O)N/N=C/c2ccc(Cl)cc2Cl)cc1	nt	2	i	2	-12	7	-4	-1
CC(=O)NC1CCN(CC(=O)Nc2nccs2)CC1	5	1	i	0	-5	-18	1	-7
COc1ccc(N2CCN(C(=O)c3ccc(C(C)(C)C)cc3)CC2)cc1	nt	3	i	1	-3	-1	2	32
CCCCOC(=O)C(C)Nc1n[nH]c(=O)[nH]c1=O (stereo not given)	nt	3	i	3	-15	-13	-2	0
COc1cccc(C2Nc3cc(Cl)c(S(N)(=O)=O)cc3S(=O)(=O)N2)c1 (stereo not given)	1	-14	i	2	nt	-15	-7	-5
CCCCn1c(=O)[nH]c2nc3cc(NC(C)=O)ccc3nc2c1=O	0	-14	i	0	-9	-6	98*	58*
OCCN1CCN(CC/C=C2/c3ccccc3Sc3ccc(C(F)(F)F)cc32)CC1	29	-4	i	-5	51	0	nt	nt
CCCCn1c(SCc2cccnc2)nc2c1c(=O)n(C)c(=O)n2C	31	4	i	-1	-9	-14	5	5
O=C(COC(=O)c1ccc(Cl)nc1)NCCc1ccccc1	nt	0	nt	0	6	8	nt	nt
NC(=O)SCC(=O)Nc1ccccc1C(=O)O	16	-3	i	-2	-3	-16	-5	2
Cc1ccc(C)c(NC(=O)/C(C#N)=C/c2cn(CC(=O)NCc3ccco3)c3ccccc23)c1	-40	-8	i	-4	82*	nt	-12	-5
CC12CCC(c3c(C(=O)Nc4nccs4)nn(-c4ccccc4)c31)C2(C)C (stereo not given)	nt	-9	i	-7	23	-4	5	-3
CC(C)(C)c1ccc(-c2nc(C=O)c3ccccn23)cc1	3	-18	i	-1	4	nt	-2	10
Cc1nc(C(=O)NNC(=O)c2ccc(Cl)cc2)c(C(F)(F)F)o1	-2	5	i	1	5	-4	0	4
O=C(c1ccsc1)N1CCCC(Nc2cccc(F)c2)C1 (stereo not given)	-126	-3	i	-2	7	-7	5	-3
O=C(CSc1nnc2c(n1)[nH]c1ccc(F)cc12)N1CCOCC1	3	6	i	-1	-6	nt	1	-8
CCc1cccc(CC)c1N1C(=O)COCC1=O	-12	0	nt	0	nt	-34	nt	nt
COc1ccc(CSc2nnnn2-c2ccccc2)cc1	nt	0	i	-4	-14	-15	-9	7
CC(C)Cc1cc(C(C)(C)C)ccc1OC(=S)N(C)C	nt	-1	i	-1	0	-15	-9	12
COc1ccc(/C=C2\N=C3CCCCCN3C2=O)cc1OC	-34	1	i	0	-7	-16	-2	20
CCC(CO)Nc1ccn2nc(-c3cccc(Cl)c3)cc2n1 (stereo not given)	-47	2	nt	-1	nt	-19	nt	nt
CCC(=O)Nc1ccc(NC(=O)CSc2nnnn2CC)cc1C	nt	6	nt	6	-5	-17	1	-2
COCCn1nnnc1C(c1ccc(OC)cc1)N1CCN(C(=O)c2ccco2)CC1 (stereo not given)	-13	-1	i	3	2	-9	5	20
Nc1ccc2nc(SCC(=O)N3CCOCC3)sc2c1	6	-1	i	0	6	nt	2	2
Cc1cc(C)nc(NCCO)n1	-4	0	i	3	nt	-12	1	-2
Cc1cc(=O)[nH]c(-c2ccc(Cl)cc2)n1	-11	0	i	5	-3	nt	1	7
O=C(O)/C=C/C(=O)c1ccc(O)cc1	-8	3	i	3	-14	6	-6	1

More compounds:
SMILES	HIV Env fusion	MT1-MMP act inh	Rce1 inhib	MT1-MMP act inh RFP	CSC inhib	Yeast UUG start	eIF4H FP inh	PABP FP inh
O=Nc1c(O)[nH]c2c(F)cccc12	-47	-3	i	1	-4	-7	12	-1
Cn1c(SCc2nc(-c3ccccc3)no2)nnc1-c1cccs1	-86	3	i	3	-10	-2	4	2
CN1CCCC(CN2c3ccccc3Sc3ccccc32)C1 (stereo not given)	i	-4	i	-4	5	-7	-6	4
NC(=O)c1cc(-c2ccccc2)sc1NC(=O)Cc1ccc(S(=O)(=O)N2CCOCC2)s1	33	-11	i	-9	-4	-10	15	4
CCC(C(=O)NC1CCCCC1)n1c2ccccc2c2nc(=O)cc(C)n21 (stereo not given)	7	-6	i	2	-4	1	3	8
CCN(CC)C(=O)C(=O)c1cn(CCOc2ccccc2)c2ccccc12	-8	1	i	2	-8	1	-2	-2
CC/C=C\C/C=C\C/C=C\CCCCCCCC(=O)O	-26	0	nt	-2	9	-2	nt	nt
NC(=O)C1CCN(CC(=O)Nc2cccnc2Cl)CC1	14	1	i	4	-19	-3	1	-13
COC(=O)c1ccc(NC(=O)CCCCCn2nnc3ccccc3c2=O)cc1	-5	-1	i	-7	6	-3	5	7
CC(C)(C)N1C(=O)[C@H]2[C@@H](c3ccc(Br)cc3)N3C(=O)N(c4cccc(F)c4)C(=O)[C@@]3(C)[C@H]2C1=O	13	-4	i	-3	-4	-3	nt	nt
CC(C)NC(=O)C(=O)Nc1cc2c3c(c1)CCC(=O)N3CCC2	-8	3	i	6	-2	-19	-5	-2
O=C(C1=C[C@@H](c2ccc(C(F)(F)F)cc2)C[C@@H](OCc2ccc(CO)cc2)O1)N1CCN(Cc2ccc3c(c2)OCO3)CC1	?	0	i	-7	44	-1	-14	-8
O=C(Nc1nnc(CSCc2ccccc2F)s1)c1cccc([N+](=O)[O-])c1	3	5	i	3	20	-10	7	-4
Cc1c(C(=O)OC/C(O)=C(\C#N)c2nc3ccccc3[nH]2)oc2ccc(Br)cc12	-8	-9	i	7	27	-17	20	-2

Random draw from the library, and some 2.9% of all compounds hit somewhere here.
